Six1-Eya2 inh: qHTS Assay for Inhibitors of the Six1/Eya2 Interaction; activity change, % (concentration not given with the values); Homeobox protein SIX1 (Homo sapiens) + Protein phosphatase EYA2 (Homo sapiens), …; AlphaScreen GST-Six1/His-Eya2 binding, biochemical; hits give low values; control for the full effect not named in the record; hit rate 0.56% among 360,000; in the data active = activity change below about -65%; inconclusive = about -30% to -65%; inactive = above about -30%; further: on the % scale 0 is the no-effect control and ±100 the full control effect
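AlphaScreen luminescence read after one hour at 37 °C in darkness. Pin-transferred compounds met GST-Six1 and His-Eya2 protein (5X stock 250 nM/500 nM) plus glutathione donor and Ni-chelate acceptor beads (5X, 50 ug/mL).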
CtBP-E1A inh: qHTS Assay for Inhibitors of the CtBP/E1A Interaction; CtBP / adenovirus E1A interaction (AlphaScreen); AlphaScreen GST-E1A/His-CtBP binding, 1536-well; hits give low values; control for the full effect not named in the record; activity change, % (concentration not given with the values); hit rate 0.49% among 340,000; AID 651724, 2012; in the data active means activity change below about -65%; inconclusive means about -30% to -65%; inactive means above about -30%; further: on the % scale 0 is the no-effect control and ±100 the full control effect
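GST-E1A and His-tagged CtBP (125 nM each as 5X stock) were preincubated with pin-transferred compound for 2 h at 37 °C in the dark, then glutathione donor and nickel acceptor beads were added for 1 h before AlphaScreen reading.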
D2 ag: Beta-Arrestin HTS for Positive Allosteric Modulators of the Human D2 Dopamine Receptor: Agonists | hit rate 0.084% among 360,000 | D(2) dopamine receptor (Homo sapiens), P14416 | activation, % (test concentration not listed) | DiscoveRx PathHunter D2 beta-arrestin, luminescence, 90 min; 100% = 57 uM dopamine signal; in the data active = activation above about 40%; inconclusive = about 15% to 40%; inactive = below about 15%; further: compound concentration not given in the record; the text of the record calls up to 30% inactive
Target sequence (P14416 whole entry, looked up): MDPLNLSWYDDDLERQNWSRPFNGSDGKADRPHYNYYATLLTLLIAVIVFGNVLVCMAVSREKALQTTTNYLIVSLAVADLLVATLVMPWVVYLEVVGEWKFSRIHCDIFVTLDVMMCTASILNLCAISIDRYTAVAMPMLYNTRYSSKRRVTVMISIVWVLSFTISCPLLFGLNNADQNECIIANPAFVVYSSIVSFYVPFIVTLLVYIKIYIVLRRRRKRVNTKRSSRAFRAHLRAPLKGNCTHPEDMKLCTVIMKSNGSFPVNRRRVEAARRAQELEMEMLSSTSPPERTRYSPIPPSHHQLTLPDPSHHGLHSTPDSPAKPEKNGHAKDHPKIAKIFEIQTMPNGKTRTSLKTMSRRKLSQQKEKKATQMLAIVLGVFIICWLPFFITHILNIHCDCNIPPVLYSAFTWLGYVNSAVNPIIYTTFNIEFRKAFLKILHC
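Agonist mode: compounds alone added to overnight-plated D2 PathHunter cells for 90 min at 37 C, with 57 uM final dopamine (EC100) defining full response. Beta-arrestin recruitment detected by chemiluminescent reagent, read after 1 h at ambient temperature.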
D2 PAM: Beta-Arrestin HTS for Positive Allosteric Modulators of the Human D2 Dopamine Receptor: Potentiators | D(2) dopamine receptor (Homo sapiens), P14416 | hit rate 0.23% among 360,000 | DiscoveRx D2 beta-arrestin cells, luminescence, 90 min; 100% = 57 uM dopamine signal | potentiation, % (concentration not given with the values); active = potentiation of 50% or more; inconclusive = 30% to 50%; inactive = 30% or less;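 further: compound concentration not given in the record; tested on top of an EC20 dose of dopamine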
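PathHunter D2 cells, attached overnight at 37 deg C, received compound in DMSO plus dopamine at EC20 (50 nM final) for 90 min at 37 deg C. Beta-arrestin recruitment was read as luminescence after 1 h with detection reagent at ambient temperature.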
Sfp PPTase inh: qHTS Assay for Inhibitors of Bacillus subtilis Sfp phosphopantetheinyl transferase (PPTase). Biochemical Sfp PPTase activity, qHTS. 4'-phosphopantetheinyl transferase ffp (Bacillus subtilis), Q9F4F7. Potency, µM, for inactives: max response, negative = inhibition, actives largely listed as inhibitors. hit rate 3.5% among 310,000. AID 1490, 2009; active means well fitted inhibition curve with a large enough effect; inconclusive means small, poorly fitted or top-dose-only effect, or another doubt; inactive means no such curve, though single readings can be large or run the other way;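 further: the enzyme is Sfp with the accession as filed and its product quenches rhodamine fluorescence; potency means the concentration at half of the fitted maximal effect; 0% = enzyme reaction without inhibitor and -100% = no enzyme wells; top concentration of the series not given in the record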
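Sfp 15 nM + cpd, 15 min RT; start w/ rhodamine-CoA 5 uM, BHQ-2-YbbR 12.5 uM (final); 50 mM Hepes pH 7.6, 10 mM MgCl2, 0.01% NP-40, 0.01% BSA; read 525/598 nm at 0 and 30 min.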
PINK1 modulator: A Quantitative High throughput Screen to Identify Chemical Modulators of PINK1 Expression. hit rate 0.2% among 410,000. Potency, µM (series often up to 76.6 µM), without a hit: top-dose activation (PINK1 increase), usual class: activators. AID 624263, 2012. PINK1 immunofluorescence, high-content cytometry, 24 h; active = well fitted activation curve with a large enough effect; inconclusive = small, poorly fitted or top-dose-only effect; inactive = flat fitted curve, though single readings scatter; cell line not stated here;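 further: potency means the concentration at half of the fitted maximal effect; % of control where 0% means no effect; nearly all actives have a fitted effect of over 65% in size; a mitochondrial uncoupler was the plate control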
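Stable cell line treated 24 h with compounds at 5 concentrations (CCCP controls), then fixed and immunostained for PINK1 plus nuclear and cell stains; PINK1 immunofluorescence quantified by laser-scanning microplate cytometry.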
TRPV1 potentiator: HTS Assay for Compounds that Act as Potentiators of the Vanilloid Receptor 1; Transient receptor potential cation channel subfamily V member 1 (Homo sapiens), Q8NER1; TRPV1-expressing cells, Fluo-8 calcium influx, capsaicin EC20 potentiation; host cell line not named in the record; control for the full effect not named in the record; potentiation, % at 8.33 µM; hit rate 0.02% among 320,000; AID 540277, 2011; active means potentiation above 80%; inconclusive means 30% to 80%; inactive means below 30%; further: 0% is about no effect
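Cells expressing TRPV1 were dye-loaded with Fluo-8 and read kinetically: 10 s baseline, 3 min after compound (agonist portion), then 2 min after EC20 capsaicin (allosteric enhancer portion). Calcium-bound dye fluorescence at 480/520 nm.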
Numbers without * were called inactive; u = inconclusive; x = not tested or not shown; & = joins results of further samples; [ ] = remark or other dose.

SMILES,Six1-Eya2 inh,CtBP-E1A inh,D2 ag,D2 PAM,Sfp PPTase inh,PINK1 modulator,TRPV1 potentiator
CCOC(=O)[C@]12CCC=C1N(Cc1ccc(Cl)cc1Cl)C(=O)[C@H](CC(=O)NCCc1ccccc1OC)C2,-9,-7,x,x,x,0.4%,x
CCOc1c2ccc(C(=O)NCc3ccccc3OC)cc2nn1CC,-1,-11,2.1,-10,16%,-2.0%,-8
O=C(NNC(=S)NCc1ccccc1)c1cccnc1,-4,1,-2.5,-12,12%,-0.4%,0
CN(C(=O)C=Cc1ccccc1)c1ccccc1,3,2,-1.0,-1,x,-0.5%,x
CC[C@]1(C(=O)OC)[C@H]2C(=O)N(Cc3ccccc3)C(=O)[C@H]2[C@H]2CN=C(SCc3ccc(Cl)cc3)N21,-1,-5,-0.7,-7,x,-0.4%,x
CCOC(=O)c1ccc(S(=O)(=O)NNC(=O)Cc2csc(C)n2)cc1,0,1,4.3,-1,x,0.6%,x
CN(c1ccccc1)S(=O)(=O)c1cccc(C(=O)OCC(=O)NCc2ccccc2)c1,-2,7,0.6,-8,x,-2.4%,x
O=C1OC(O)c2cccc3cccc1c23 (stereo unspecified),-1,3,-2.1,-10,x,-0.2%,x
COCCC(=O)N1CCC(Oc2ccc(C(=O)NCCn3cccn3)cc2)CC1,4,9,-0.2,-4,3%,-0.3%,11
O=C(CCn1c(=S)[nH]c2ccccc2c1=O)NCCCN1CCOCC1,3,-6,-0.6,-5,-9%,0.2%,21
CC1CCN(c2ccc(-c3cccs3)nn2)CC1,4,x,-5.4,1,-4%,0.5%,-7
O=[N+]([O-])c1cccc(S(=O)(=O)NCCc2cn3ccccc3n2)c1,-2,5,-2.8,5,3%,0.5%,21
COc1ccc(OC)c(CN2CCCC(C(=O)N3CCCCC3)C2)c1 (stereo unspecified),0,6,1.6,-14,u,9.8%[38.3 µM],6
COC(=O)CN1C(=O)C(O)(CC(=O)c2ccc(C)o2)c2ccccc21 (stereo unspecified),5,-2,-1.9,-3,8%,0.6%,u
O=c1c(Cl)c(NC2CC2)cnn1-c1ccccc1,13,6,-1.6,-5,23%,0.5%,1
O=C(/C=C/c1cn(-c2ccccc2)nc1-c1cccnc1)N1CCCC1,-15,-5,8.7,-4,7%,2.4%,-29
Cc1ccc(Sc2ncnc(N)c2[N+](=O)[O-])cc1,7,2,2.3,-1,6%,1.2%,1
COc1cc(C2Nc3ccccc3C(=O)N2NS(C)(=O)=O)c([N+](=O)[O-])cc1OC (stereo unspecified),4,9,-0.7,-2,u,0.9%,29
COc1cccc(C(=O)Nc2c3c(nn2-c2cccc(C)c2C)CS(=O)(=O)C3)c1OC,-12,-21,-1.8,7,10%,16%[38.3 µM],-2
CC(=O)Nc1ccc(NCC(O)COc2ccccc2)cc1 (stereo unspecified),10,-1,3.0,-8,2%,-3.1%,-2
O=C(c1ccc(Cl)c([N+](=O)[O-])c1)N1CCN(c2ccccn2)CC1,8,-1,-0.4,-10,13%,-2.8%,-11
Cc1onc(-c2c(F)cccc2Cl)c1C(=O)N[C@@H]1C(=O)N2C(C(=O)O)C(C)(C)S[C@H]12 (stereo partly specified),0,-1,-2.3,-7,x,-0.6%,-2
COc1cc(C2C(C#N)=C(N)N(c3ccc(F)cc3)C3=C2S(=O)(=O)CC3)ccc1O (stereo unspecified),-13,x,-2.6,-5,-45%,0.6%,8
CN(C)c1ccc(-n2cccc2)cc1,-68*,u,-4.4,-10,-3%,-1.5%,-2
CC(C(=O)Nc1ccc(C(=O)O)cc1)N1C(=O)c2ccccc2C1=O (stereo unspecified),4,10,-3.0,7,9%,-1.1%,-2
CCOC(=O)N1CCC(N2C(=O)c3ccc(C(=O)Nc4cccc(OC)c4)cc3C2=O)CC1,3,x,-2.6,-5,8%,10%,5
O=C(COc1ccccc1)Nc1ccc(NC(=O)c2ccco2)cc1,1,3,-5.9,-7,13%,0.1%,-1
O=C(O)c1ccc(-c2nc3ccccc3s2)o1,-11,-9,-0.1,-1,-13%,0.5%,1
CCSC1=C(C#N)C(c2ccccc2Cl)C(C(=O)c2cccs2)C(O)(C(F)(F)F)N1 (stereo unspecified),-5,-1,-4.5,-14,3%,-1.7%,-19
CCOC(=O)c1ccc(S(=O)(=O)N2CCC(C(=O)N3CCN(c4ccccc4OC)CC3)CC2)cc1,-11,-5,-0.3,-18,x,4.1%,x
C#CCN1C(=O)C2C(C(=O)NC)C3C=CC2(O3)C1C(=O)NCc1ccc(OC)cc1 (stereo unspecified),0,0,-2.0,-4,6%,-0.9%,u
CNC(=O)/C(C#N)=C/c1c(N(Cc2ccccc2)Cc2ccccc2)nc2ccccn2c1=O,-18,1,-7.1,-14,-15%,-1.9%,-14
Cc1ccc(Oc2cc(C#N)c(C#N)cc2-n2nnc3ccccc32)cc1C,-1,5,-2.0,-18,19%,10%,2
Cc1cc(-c2ccc(C)c(S(=O)(=O)NCCCN3CCN(c4ccccc4)CC3)c2)on1,-17,x,11,-8,-2%,3.3%,28
Cc1ccc(/C=C/C(=O)CCC(=O)O)cc1,5,7,3.3,-4,21%,4.8%,-3
C[C@H](NC(=O)c1ccc(Cl)cc1)C(=O)NNC(=O)c1cccs1,8,5,3.1,5,x,1.9%,-10
O=C(c1ccc(Cl)c(S(=O)(=O)N2CCc3ccccc32)c1)N1CCN(c2ccccc2O)CC1,2,8,u,16,x,0.7%,x
CCN(CC)S(=O)(=O)c1ccc2nc(NC(=O)c3cccs3)sc2c1,-1,-1,-2.8,1,4%,-2.2%,-12
CCc1ccc(Nc2nnc(SCc3cc(=O)n4ccsc4n3)s2)cc1,-6,-17,-2.1,-8,-4%,-2.3%,-15
CC1=[N+](CC(=O)c2ccccc2)CCn2cccc21,-3,8,0.9,2,0%,18%,u
O=C(NCc1cccs1)C1CCCN(c2ncccn2)C1 (stereo unspecified),4,8,-1.4,-9,-9%,4.1%[38.3 µM],-5
CC(NS(=O)(=O)c1ccc(CCC(=O)NCc2cccnc2)cc1)c1ccccc1 (stereo unspecified),4,7,-4.7,-14,9%,2.3%,-14
Cc1ccccc1NC(=O)Cc1nc(COC(=O)c2nc(Cl)ccc2Cl)cs1,19,x,0.4,-7,x,0.3%,11
Cc1cc(C)cc(NC(=S)NCc2ccc3c(c2)OCO3)c1,-21,-12,-0.2,-10,x,-0.1%,x
O=C(NC1CCCC1)C(c1ccncc1)N(C(=O)c1ccco1)c1ccc(F)c(Cl)c1 (stereo unspecified),-1,15,-2.4,2,2%,1.6%,5
CN(CC(=O)Nc1ccc(OC(F)(F)F)cc1)C(=O)Cn1c(=O)cnc2ccccc21,4,x,0.5,-6,x,4.5%,-1
Cc1ccc(C(=O)NC(=C(Cl)Cl)S(=O)(=O)c2ccccc2)cc1,-8,x,-7.7,-14,1%,u,25
CCCCCc1nc2c(=O)[nH]c3ccccc3c2o1,4,1,-1.7,-16,16%,-1.2%,3
COC(=O)CC1C(=O)NCCN1C(=O)CSc1nc2cc(Cl)ccc2o1 (stereo unspecified),-3,-12,1.4,-22,12%,0.7%,3
CC(=NCCc1c(C)[nH]c2ccc(OCc3ccccc3)cc12)C1=C(O)CC(c2ccccc2)CC1=O (stereo unspecified),-9,11,6.9,9,27%,3.2%,11
CCOc1cccc(-c2nnc3sc(COc4ccc(C)cc4)nn23)c1,-1,18,0.3,-22,3%,10%,-14
CC(=O)Oc1ccc2oc(/C=C/N(C)C)c([N+](=O)[O-])c2c1,-10,-6,-8.2,-43,9%,x,14
NC(=O)CSC1=Nc2ccccc2C2=NC(c3ccccc3)C(=O)N12 (stereo unspecified),9,-1,-3.7,-6,3%,2.3%,1
O=C(NNS(=O)(=O)c1ccc(F)cc1)c1ccc([N+](=O)[O-])cc1Cl,-16,-4,2.0,-2,20%,1.7%,-3
CC1(C)Cc2c(cnn2-c2cccc(F)c2)C(NC(=O)CCc2cnccn2)C1 (stereo unspecified),4,x,-2.3,-5,24%,-0.7%,-4
CCN(CC)CCCNC(=O)c1cn(C)c(=O)c2c1c1ccccc1n2C,2,3,-4.0,-11,1%,-0.8%,9
CCOc1ccc(NC(=O)Cc2c(C(=O)O)n(C)c3ccccc23)cc1,-18,-7,-1.5,-4,1%,0.3%,u
COc1ccc(C(=O)NCCS(=O)(=O)NCc2ccccc2OC)cc1,-3,2,-0.4,-3,x,3.2%,5
Nc1[nH]c(=O)ncc1F,-5,3,1.9,-8,21%&23%&30%,1.5%,2&4
CCOC(=O)NC(Nc1sc2c(c1C(=O)OC)CCN(C)C2)(C(F)(F)F)C(F)(F)F,0,-4,-0.5,-22,10%,0.0%,4
O=C(COc1ccccc1[N+](=O)[O-])N1CCN(C(=O)c2ccco2)CC1,10,-7,1.7,-4,9%,-0.8%,4
O=C(CNC(=O)c1ccc(Br)o1)NNC(=O)c1cccc(Cl)c1,-2,-18,-1.1,2,x,-0.1%,-2

Looked up above:
Sfp PPTase inh, CCCCCc1nc2c(=O)[nH]c3ccccc3c2o1 = 16%
PINK1 modulator, Cc1ccc(/C=C/C(=O)CCC(=O)O)cc1 = 4.8%
D2 PAM, CC(=O)Oc1ccc2oc(/C=C/N(C)C)c([N+](=O)[O-])c2c1 = -43
